Screens as filed in PubChem BioAssay.
GIRK2 act = activators of human GIRK2 potassium channels | G protein-activated inward rectifier potassium channel 2 (Homo sapiens), P48051 | HEK293-GIRK2 thallium flux, Thallos fluorescence | calls only for hits at 25 µM | hit rate 0.05% among 63,000 | AID 1259325, 2017;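 active = among the strongest 0.2% of first-round signals and kept after retests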;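 also: first round at about 10 µM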
Target sequence (P48051 whole entry, looked up): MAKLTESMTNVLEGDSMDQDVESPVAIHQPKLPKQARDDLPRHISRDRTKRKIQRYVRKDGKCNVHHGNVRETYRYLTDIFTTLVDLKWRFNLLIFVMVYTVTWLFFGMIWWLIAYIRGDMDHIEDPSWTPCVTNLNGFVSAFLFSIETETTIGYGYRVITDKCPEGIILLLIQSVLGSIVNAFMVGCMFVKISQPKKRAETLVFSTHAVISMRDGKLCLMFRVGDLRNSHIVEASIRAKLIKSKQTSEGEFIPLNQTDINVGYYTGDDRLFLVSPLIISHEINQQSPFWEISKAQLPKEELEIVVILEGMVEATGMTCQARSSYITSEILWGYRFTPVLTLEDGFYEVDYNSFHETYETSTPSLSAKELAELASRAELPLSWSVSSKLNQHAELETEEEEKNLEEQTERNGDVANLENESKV
Calls only; i = inactive. Some of the compounds tested; the hit share may differ from the screen's.

SMILES	GIRK2 act
CCOC(=O)NCc1ncc(-c2ccccc2)[nH]1	i
COc1ccc(S(=O)(=O)Nc2cnc(N3CCOCC3)nc2)cc1C	i
O=C(NCCC1=CCCCC1)c1nnn(-c2ccccc2F)c1-c1cccnc1	i
COc1ccc(S(=O)(=O)N2CCCc3cc(NC(=O)COc4ccc(C)cc4)ccc32)cc1	i
Cc1ccc(S(=O)(=O)c2ccc(N3CCC(C(=O)Nc4ccc(C(N)=O)cc4)CC3)nn2)cc1	i
O=C(NCC1CCN(C2CCCC2)CC1)Nc1cccc(C(F)(F)F)c1	i
O=C(c1ccc(S(=O)(=O)N2CCc3ccccc3C2)cc1)N1CCCC1	i
O=C(Nc1cc(C2CC2)nn1-c1nc(-c2ccccc2)cc(=O)[nH]1)c1cc(C2CC2)on1	i
COCCn1c(C(=O)N2COCC2(C)C)cc2c(=O)n(C)c(=O)n(C)c21	i
O=C(c1ccc(Br)o1)N1CCN(Cc2nnnn2-c2ccc(F)cc2)CC1	i
COc1ccc2c(=O)c3c(=O)n(Cc4ccco4)c(-c4ccccc4)nc3oc2c1	i
CN1CCN(c2nnc(SCC(=O)NC3CCCCC3)s2)CC1	i
COc1ccc(CCC(=O)NCCn2ncccc2=O)cc1	i
O=c1oc2cc(OCC(O)Cn3cncn3)ccc2c2c1CCC2 (centres undefined)	i
CC1(C)CC(NC(=O)c2ccc(S(=O)(=O)N3CCOCC3)cc2)CC(C)(C)N1	i
N#C/C(C(=O)NCc1ccccc1)=C1/N=C(NC(=O)c2ccccc2)c2ccccc21	i
COC(=O)c1ccc2c(=O)n(CCC(=O)O)c(=S)[nH]c2c1	i
COc1cccc(Oc2c(-c3ccc(OC)cc3O)n[nH]c2C)c1	i
CC(O)(CCc1ccccc1)CNC(=O)C(=O)Nc1ccon1 (centres undefined)	i
COc1ccc(Br)cc1S(=O)(=O)NCCn1nc(-c2ccccc2)ccc1=O	i
COCCn1c(SCc2nc(-c3ccc(Cl)cc3)no2)nc2ccsc2c1=O	i
Cc1nn2c(N3CCN(C)CC3)cc(C(C)(C)C)nc2c1-c1ccccc1	i
Cc1ccc(C(C)C)c(OCC(O)CN2CCOCC2)c1 (centres undefined)	i
COCCCNc1c([N+](=O)[O-])c(=O)n(-c2ccccc2)c2ccccc12	i
O=C(Nc1ccc2c(c1)N(C(=O)C1CC1)CC2)c1cc2ccccc2oc1=O	i
O=C(COc1ccc2c(c1)C(=O)CC2)NCCc1c[nH]c2ccccc12	i
COc1ccccc1N1CCN(S(=O)(=O)c2ccc(F)cc2C)CC1	i
Cc1nnc2c(SCC(=O)NCc3ccccc3Cl)nc3ccccc3n12	i
C#CCn1c(=NC(=O)CSC(C)=O)sc2cc(OC)ccc21	i
CCC(C)c1ccccc1OCC(O)CNC(C)C (centres undefined)	i
Cc1c(C(=O)Nc2ccccc2C(F)(F)F)nnn1-c1ccc(C(C)C)cc1	i
COC(=O)C1CCN(S(=O)(=O)c2ccc(N3C(=O)CCC3=O)cc2)CC1	i
CN(C)C(CNC(=O)C(=O)Nc1cccc(C(F)(F)F)c1)c1ccccc1Cl (centres undefined)	i
O=C(CCn1ccc(=O)[nH]c1=O)N1CCN(Cc2csc(-c3ccccc3)n2)CC1	i
CCOC(=O)N1CCN(C2CC(=O)N(c3ccccc3OC(F)F)C2=O)CC1 (centres undefined)	i
CCCCc1ccc(NCCn2c(C)c(C)n3c4c(=O)n(C)c(=O)n(C)c4nc23)cc1	i
O=C(CCCc1nnc2c(=O)n(-c3ccc(Cl)cc3)ccn12)N1CCN(C2CCCCC2)CC1	i
O=C(/C=C/c1ccccc1)N1CCN(Cc2nc(-c3ccc(F)cc3)cs2)CC1	i
CC(C(=O)Nc1ccccn1)n1nc(-c2ccccc2)ccc1=O (centres undefined)	i
O=C(c1cccs1)N1CCC(Cn2ccnc2)CC1	i
O=C(NCC(O)c1ccc2c(c1)CCO2)Nc1ccc2c(c1)OCO2 (centres undefined)	i
COc1ccccc1CNC(=O)Cn1ccn2nc(-c3ccc(Cl)cc3)cc2c1=O	i
O=C(NCC1CCN(C(=O)c2ccoc2)CC1)c1cccc2ccccc12	i
OC(COc1c(F)cc(Br)cc1F)CN1CCN(Cc2ccc3c(c2)OCO3)CC1 (centres undefined)	i
Cc1cn2c3c(=O)n(CCc4ccccc4)c(=O)n(C)c3nc2n1CCN(C)C	i
COc1ccc(-c2ccc(OCCNC(=O)CCSc3ccccc3)nn2)cc1	i
CC1(C)Cc2cccc(OCC(=O)Nc3cccc(-c4ccn[nH]4)c3)c2O1	i
COc1ccc(-c2c(C)c3ccc(OCCN4CCCCC4)cc3oc2=O)cc1OC	i

Three structures out of the list, sorted by formula weight, smallest number first.
SMILES	GIRK2 act
O=C(NCC(O)c1ccc2c(c1)CCO2)Nc1ccc2c(c1)OCO2 (centres undefined)	i
CC1(C)Cc2cccc(OCC(=O)Nc3cccc(-c4ccn[nH]4)c3)c2O1	i
COc1ccccc1CNC(=O)Cn1ccn2nc(-c3ccc(Cl)cc3)cc2c1=O	i

The results go on.
SMILES	GIRK2 act
CCOC(=O)C1CCN(CC(=O)Nc2oc3ccccc3c(=O)c2-c2ccccc2)CC1	i
CSc1ccc(-c2noc(CN3C(=O)COc4ccc(C(C)(C)C)cc43)n2)cc1	i
COc1cc(N2CCN(S(=O)(=O)c3ccccc3Cl)CC2)nc(OC)n1	i
Cc1ccc(/C=C/S(=O)(=O)N(CCc2cccs2)Cc2cccnc2)cc1	i
Cc1noc(CNC(=O)c2ccc(S(=O)(=O)N(C)C)cc2)n1	i
CC(Sc1nc2ccccc2[nH]1)C(=O)N/N=C\c1cc(Br)ccc1O (centres undefined)	i
Cn1nnn(-c2ccc(NC(=O)c3ccc(F)c(F)c3)cc2)c1=O	i
O=C1NC(=NCCc2cccc(Cl)c2)S/C1=C\c1ccc2ncccc2c1	i
COc1cc(-c2noc(CCn3nc(-c4ccc(Cl)cc4)ccc3=O)n2)cc(OC)c1OC	i
Cc1cc(C)c(NC(=O)Cn2nc(-c3ccccc3)c3sc(N4CCOCC4)nc3c2=O)c(C)c1	i
Cc1ccc(C(=O)N2CCC3(CC2)CC(=O)c2ccccc2O3)cc1	i
CCOc1ccc(CC(=O)N2CCC(CSc3ccc(OC)cc3)CC2)cc1	i
O=C(CSc1nc2ccccc2c(=O)n1-c1ccccc1)Nc1ncn[nH]1	i
CNC(=O)Cc1csc(NC(=O)c2cnn3c2OCCC3)n1	i
COc1nn(C)cc1C(=O)N1CCCC(COCc2ccccc2)C1 (centres undefined)	i
CCCCCCCCCCCCC/C=C/[C@@H](O)[C@H](COP(=O)(O)O)NC(=O)CCCCCCC	i
COc1ccc(CCS(=O)(=O)N(Cc2cccs2)Cc2cccn2C)cc1	i
Cc1nn2c(N3CCN(CCO)CC3)cc(C(C)(C)C)nc2c1-c1ccccc1	i
O=C(Cc1ccc(Cl)cc1)NCCN1CCN(c2ccc(Cl)cc2)CC1	i
O=[N+]([O-])c1ccccc1S(=O)(=O)NCCOc1cccc(C(F)(F)F)c1	i
Cc1noc(CNC(=O)C2CSCCC(=O)N2)n1 (centres undefined)	i
CC1(C)OCC2(CO1)CN(C(=O)c1cc(-c3cccs3)[nH]n1)C2	i
O=C(NCCC1=CCCCC1)c1cc2n(n1)CCCO2	i
COc1ccc(S(=O)(=O)N2CCCCC2)cc1C(=O)Nc1ccc(N2CCOCC2)cc1	i

2 entries from above, set out differently.
COc1ccc(CCS(=O)(=O)N(Cc2cccs2)Cc2cccn2C)cc1
  GIRK2 act = i
Cc1nn2c(N3CCN(CCO)CC3)cc(C(C)(C)C)nc2c1-c1ccccc1
  GIRK2 act = i

Continuation.
SMILES	GIRK2 act
COc1cccc(Cn2cnc3c(-c4ccc(Br)cc4)csc3c2=O)c1	i
Cc1ccc(C(C)C)cc1OCC(=O)OCC(=O)c1ccccc1	i
Cc1cccc(-c2noc(-c3cccn4c(=O)n(CC(=O)N5CCN(c6ccccc6)CC5)nc34)n2)c1	i
CN(C)c1ccc(C(=O)NCCC(O)c2cccc3ccccc23)cc1 (centres undefined)	i
O=C1C(=O)N(CCCn2ccnc2)C(c2ccco2)C1=C(O)c1ccc2c(c1)OCCO2 (centres undefined)	i
O=C(CN1CCN(CC(O)c2cccs2)CC1)N1CCOCC1 (centres undefined)	i
CCCCCCCCCCCCCCCCCCCCCCC(=O)OCC	i
Cc1ccc(N2C=C(C#N)S(=O)(=O)c3ccccc32)c(Cl)c1	i
COc1ccc(N2C(=O)CS(=O)(=O)C23C(=O)N(Cc2cccc(Cl)c2)c2ccccc23)cc1 (centres undefined)	i
O=C(CN1CC(c2nc(Cc3ccccc3)no2)C1)Nc1nccs1	i
Cc1nc(NC(=O)CN(C)c2nc3c(C)ccc(C)c3s2)sc1C(=O)N(C)C	i
CSc1ccccc1CN1CCC(CNC(=O)c2c(C)nc3ccccn23)CC1	i
O=c1ccc(-c2ccc(Br)cc2)nn1Cc1cccc([N+](=O)[O-])c1	i
Cc1ccc(-c2noc(C3CCN(CC(=O)Nc4ccc(C)cc4C)CC3)n2)cc1	i
CCN(CCCNC(=O)CCCn1c(=O)[nH]c2ccsc2c1=O)c1cccc(C)c1	i
O=S(=O)(Cc1ccc(C(F)(F)F)cc1)NCC1(O)CCOCC1	i
CSc1cccc(NC(=O)Cn2nc3ccc(SC4CCCCC4)nn3c2=O)c1	i
COc1cccc(N2CCCn3c2nc2c3c(=O)n(C/C=C/c3ccccc3)c(=O)n2C)c1	i
COc1cccc(CNc2nccn(-c3ccccc3OC)c2=O)c1	i
CN1CCN(c2nnc(SCC(=O)Nc3nc4ccccc4s3)s2)CC1	i
COC(=O)C(C)Oc1ccc2c(c1)O/C(=C\c1cc(Br)cc3c1OCOC3)C2=O (centres undefined)	i
CCN(CC)C(=O)Cn1c(=O)n(CC(=O)NCc2ccco2)c(=O)c2sccc21	i
Cc1ccc(OCCn2c(C3CC(=O)N(C(C)(C)C)C3)nc3ccccc32)cc1 (centres undefined)	i
Cc1ccccc1NC(=O)NCCC(O)c1ccc2c(c1)OCO2 (centres undefined)	i
Cn1c(=O)[nH]c(=O)c2c1nc(NCCO)n2CCCOc1ccccc1	i
C=C(C)COc1ccc(-c2nc(N)ncc2Oc2cccc(OC)c2)c(O)c1	i
Cc1noc(CNC(=O)C2CCN(C(=O)c3cc(-c4ccco4)on3)CC2)n1	i
CCc1cnc2c(c1SCC(=O)Nc1ccc(C(=O)OC)cc1)c(=O)n(C)c(=O)n2C	i
Cn1nc(-c2ccc(F)cc2)cc1C(=O)NC1CC(O)C(CO)C1 (centres undefined)	i
CNCC(O)COc1ccc(Cl)c(C)c1 (centres undefined)	i
CCOc1ccccc1NC(=O)CSc1ncccc1-c1nc(C)no1	i
COc1ccc(F)cc1S(=O)(=O)N1CC2(COC(C)(C)OC2)C1	i
CCOc1ccc(-c2nc(Cn3ccn4nc(-c5ccc(C)cc5)cc4c3=O)c(C)o2)cc1OC	i
CCN(CC)C(=O)Oc1ccc2c(c1C)O/C(=C\c1cc(OC)c(OC)c(OC)c1)C2=O	i
Cn1cc(CC(=O)N2CCN(c3cc(N4CCCCC4)ncn3)CC2)c2ccccc21	i
CCOC(=O)N1c2ccccc2NC(=O)CC1C (centres undefined)	i
COc1ccc(S(=O)(=O)NCCN2CCN(c3ccccc3OC)CC2)cc1OC	i
CCOc1cc(C(=O)Nc2ccc(-n3nnn(C)c3=O)cc2)cc(OCC)c1OCC	i
O=C(NCC(O)c1ccc2c(c1)CCO2)c1ccc(C(F)(F)F)cc1 (centres undefined)	i
COc1ccccc1-c1coc2c3c(ccc2c1=O)OCN(Cc1c(F)cccc1Cl)C3	i
Cc1cc(C)cc(C(=O)NC2CCN(C(=O)c3cc(-c4cccc(Cl)c4)n[nH]3)CC2)c1	i
Cc1nc(-c2cccs2)sc1CNC(=O)Nc1cccs1	i
Cc1ccc(-c2cc3c(=O)n(CC(=O)Nc4ccc(C)cc4C)ccn3n2)cc1	i
CN(CC(=O)Nc1nc(-c2cc3ccccc3o2)cs1)S(C)(=O)=O	i
Cc1nnc(SCC(=O)N2CCOCC2)c2ccccc12	i
COc1cccc(C(=O)NCCNc2ccc(-n3cccc3)nn2)c1	i
CC(=O)Nc1ccc(NC(=O)c2ccc3nnsc3c2)cc1	i
COCCCn1c(C(=O)NCCc2ccc(OC)cc2)cc2c(=O)n(C)c(=O)n(C)c21	i
COc1ccc(S(=O)(=O)N2CCCOC2CNC(=O)C(=O)NC2CC2)cc1C (centres undefined)	i
COCCN(Cc1ccoc1)C(=O)NC(C)(C)C	i
COCCn1c(C(=O)NCCc2ccc(OC)c(OC)c2)cc2c(=O)n(C)c(=O)n(C)c21	i
O=c1cc(-c2ccc(O)cc2)oc2cc(O)cc(O)c12	i
COCCCN1CCc2nc(SCc3nc(-c4cccc(Cl)c4)oc3C)[nH]c(=O)c2C1	i
COc1ccc(NC(=O)Cn2nc3cc(C)nc(Nc4cc(C)cc(C)c4)n3c2=O)cc1	i
CN1CCN(NC(=O)c2nnn(-c3ccc(OC(F)(F)F)cc3)n2)CC1	i
COc1ccc(Cl)cc1NC(=O)N1CCC(CSCc2ccco2)CC1	i
O=C(NCc1ccc(F)cc1)c1n[nH]nc1Nc1ccc(Cl)cc1	i

Structures shown so far that have a thiophene ring, fused or not:
SMILES	GIRK2 act
COCCn1c(SCc2nc(-c3ccc(Cl)cc3)no2)nc2ccsc2c1=O	i
O=C(c1cccs1)N1CCC(Cn2ccnc2)CC1	i
Cc1ccc(/C=C/S(=O)(=O)N(CCc2cccs2)Cc2cccnc2)cc1	i
COc1ccc(CCS(=O)(=O)N(Cc2cccs2)Cc2cccn2C)cc1	i
CC1(C)OCC2(CO1)CN(C(=O)c1cc(-c3cccs3)[nH]n1)C2	i
COc1cccc(Cn2cnc3c(-c4ccc(Br)cc4)csc3c2=O)c1	i
O=C(CN1CCN(CC(O)c2cccs2)CC1)N1CCOCC1 (centres undefined)	i
CCN(CCCNC(=O)CCCn1c(=O)[nH]c2ccsc2c1=O)c1cccc(C)c1	i
CCN(CC)C(=O)Cn1c(=O)n(CC(=O)NCc2ccco2)c(=O)c2sccc21	i
Cc1nc(-c2cccs2)sc1CNC(=O)Nc1cccs1	i
